Screens: PubChem, Broad Institute
rRNA inh HTS – selective bacterial rRNA inhibition in E. coli. E. coli WT GFP vs humanized-ribosome RFP mutants, fluorescence, 24 h; stronger effect = lower value; DMSO median 0, no signal -100. GFP signal change (wild-type ribosome), % (no concentration beside the values). 1.6% of 350,000 active;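 active means significant combined selectivity score with lowered wild-type GFP, culture density cut under 30%, mutant RFP and density less affected; inactive means any of these conditions unmet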; further: one replicate is shown; some compounds called inactive have numbers as strong as hits
FGF22 binding – FGF22 (human) thermal shift binding | Q9HCT0 | recombinant FGF22 thermal shift, SYPRO orange fluorescence; percent of sucrose octasulfate shift, DMSO zero | calls only at 9.99 µM | 1.5% of 340,000 active;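 active means melting point raised past a set limit in the mean and every replicate; three in four hits are not shown here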
Target sequence (Q9HCT0 whole entry, looked up): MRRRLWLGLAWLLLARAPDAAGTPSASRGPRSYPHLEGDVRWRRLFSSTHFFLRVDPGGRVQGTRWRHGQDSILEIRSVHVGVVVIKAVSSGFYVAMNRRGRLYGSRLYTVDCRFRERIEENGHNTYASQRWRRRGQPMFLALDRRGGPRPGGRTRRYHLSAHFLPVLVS
rRNA inh HTS OD600 – further read-out of rRNA inh HTS, marked with its call; OD600 change, %; measured here: OD600 growth;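 optical density of the mix in the first replicate; 0 = DMSO median and -100 = no signal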
rRNA inh HTS RFP – further read-out of rRNA inh HTS, marked with its call; RFP signal change, %; measured here: RFP humanized mutant strains;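 first replicate; 0 = DMSO median and -100 = no signal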
Starred values were filed as active, the others as inactive; i = inactive; + = active, no number; & = joins results of further samples.

SMILES	rRNA inh HTS	rRNA inh HTS OD600	rRNA inh HTS RFP	FGF22 binding
COC(=O)C1=C(C)N(Cc2ccccc2C(F)(F)F)C(=NCc2ccc3c(c2)OCO3)NC1c1cccc(Cl)c1 (stereo unspecified)	-31.5	-63.1	-5.5	i
COc1ccc(NC(=O)Nc2ccc3c(c2)C(=O)N([C@@H](C)CO)C[C@H](C)[C@@H](CN(C)S(=O)(=O)c2cn(C)cn2)OCCCC[C@@H](C)O3)cc1	-1.3	0.2	-0.3	i
COc1cccc(-c2ccc3c(c2)[C@@H]2[C@@H](CCN2S(=O)(=O)c2cn(C)cn2)[C@H](CO)N3)c1	-2.0	-4.2	0.1	i
C[C@@H]1CN([C@@H](C)CO)C(=O)Cc2cc(NC(=O)Nc3ccc4c(c3)OCO4)ccc2O[C@@H]1CN(C)C(=O)Nc1ccccc1	2.0	-1.5	-0.4	i
CCCNC(=O)C[C@@H]1C[C@@H]2c3cc(NC(=O)Cc4ccncc4)ccc3O[C@@H]2[C@@H](CO)O1	1.5	7.6	-2.2	i
Cc1noc(C)c1S(=O)(=O)Nc1ccc2c(c1)C(=O)N([C@H](C)CO)C[C@H](C)[C@@H](CN(C)S(=O)(=O)c1cccs1)OCCCC[C@@H](C)O2	1.7	-11.8	-0.9	i
Cc1noc(C)c1NC(=O)N(C)C[C@@H]1OCCCC[C@H](C)Oc2ccc(NC(=O)Nc3ccccc3)cc2C(=O)N([C@H](C)CO)C[C@@H]1C	1.5	-0.6	0.3	i
O=C(Nc1ccccc1)Nc1ccc2c(c1)[C@H]1C[C@@H](CC(=O)N3CCOCC3)O[C@@H](CO)[C@H]1O2	1.7	3.8	-3.1	i
C[C@H](O)[C@@H]1C(=O)N2CCc3c([nH]c4c(-c5ccccc5)cccc34)[C@@H]2C[C@@H]1N(C)C(=S)NCCc1ccccc1	6.2	9.2	-3.3	i
CN(C)CC(=O)Nc1ccc2c(c1)[C@H]1C[C@@H](CC(=O)NCc3ccccc3F)O[C@H](CO)[C@H]1O2	-0.9	-3.9	-2.2	i
Cc1ccc(S(=O)(=O)N(C)C[C@@H]2OCCCC[C@H](C)Oc3ccc(NC(=O)C4CCCCC4)cc3C(=O)N([C@H](C)CO)C[C@@H]2C)cc1	-2.9	0.2	-3.0	i
C[C@H]1CN([C@@H](C)CO)C(=O)Cc2cc(NC(=O)Nc3ccc4c(c3)OCO4)ccc2O[C@H]1CN(C)C(=O)Nc1ccccc1	9.9	1.3	-1.3	i
C[C@@H]1CN([C@@H](C)CO)C(=O)c2cccc(NS(=O)(=O)c3ccc(Cl)cc3)c2O[C@H]1CN(C)S(=O)(=O)c1ccc(F)cc1	-1.8	-6.5	1.3	i
COc1ccc(S(=O)(=O)N(C)C[C@H]2Oc3ccc(NS(=O)(=O)c4ccc(C)cc4)cc3CC(=O)N([C@H](C)CO)C[C@H]2C)cc1	1.0	-8.4	-0.4	i
CNC(=O)C[C@H]1CC[C@@H]2[C@H](COc3ccc(NC(=O)c4cccs4)cc3C(=O)N2C)O1	2.2	8.4	0.1	i
C/C=C/c1cnc2c(c1)C(=O)N([C@H](C)CO)C[C@H](C)[C@@H](CN(C)C(=O)Cc1ccccn1)O2	1.1	12.2	-3.5	i
C[C@H](CO)N1C[C@H](C)[C@@H](CN(C)S(=O)(=O)c2cn(C)cn2)Oc2ccc(NC(=O)CCC(F)(F)F)cc2CC1=O	3.8	10.4	-2.1	i
COc1ccc(NC(=O)Nc2ccc3c(c2)C(=O)N([C@@H](C)CO)C[C@@H](C)[C@@H](CN(C)S(=O)(=O)c2cn(C)cn2)OCCCC[C@H](C)O3)cc1	3.8	4.8	-1.2	i
NC(=O)c1ncn([C@@H]2O[C@H](C(=O)N3CCN(Cc4ccccn4)CC3)[C@@H](O)[C@H]2O)n1	19.2	12.8	-0.1	i
C[C@H](CO)N1C[C@H](C)[C@H](CN(C)S(=O)(=O)c2cccs2)Oc2ccc(NC(=O)CCCCCC(=O)Nc3ccccc3N)cc2CC1=O	0.3	0.6	0.6	i
CNC(=O)C[C@@H]1CC[C@H]2[C@H](COc3ccc(NC(=O)Cc4cccs4)cc3C(=O)N2C)O1	0.3	-3.1	-1.0	i
O=C(Cc1ccc(NC(=O)C2CCN(C(=O)C3CCCC3)CC2)cc1)Nc1cccc(C(=O)N2CCCC2)c1	-5.8	-2.1	3.0	i
FC(F)(F)c1ccccc1CN1[C@@H]2CNC[C@H]1C2c1ccc(-c2ccncc2)cc1 (stereo partly specified)	1.6	4.7	-4.2	i
O=C1CC2c3cc(-c4cc5ccccc5o4)ccc3CCN2C(=O)CN1Cc1ccccc1 (stereo unspecified)	-7.2	7.8	5.8	i
CN(C)CC(=O)N1C[C@@H]2N[C@H](C1)C2c1ccc(-c2ccncc2)cc1 (stereo partly specified)	0.6&11.8	11.0&16.8	3.0&0.3	i
(further entries)
SMILES	rRNA inh HTS	rRNA inh HTS OD600	rRNA inh HTS RFP	FGF22 binding
Cc1ccccc1NC(=O)Nc1ccc2c(c1)C(=O)N(C)[C@H]1CC[C@@H](CC(=O)O)O[C@H]1CO2	6.2	16.3	1.9	i
O=C(NC(CC1=CCCCC1)c1ccc2ccccc2c1)C(F)(F)F (stereo unspecified)	11.9	6.5	2.4	i
O=C(Nc1ccc2c(c1)[C@H]1C[C@@H](CC(=O)N3CCOCC3)O[C@@H](CO)[C@H]1O2)C1CCC1	2.2	-0.6	-3.3	i
Cc1cc(C(=O)Nc2cccc3c2O[C@H](CN(C)Cc2ccc(C(=O)Nc4ccccc4N)cc2)[C@H](C)CN([C@H](C)CO)C3=O)n(C)n1	-1.1	-5.3	-1.8	i
CCNC(=O)Nc1ccc2c(c1)C(=O)N(C)[C@H]1CC[C@@H](CC(=O)NCCN3CCCC3)O[C@H]1CO2	1.2	1.2	0.6	i
COc1ccc(S(=O)(=O)Nc2cccc3c2O[C@H](CN(C)Cc2ccc(C(=O)Nc4ccccc4N)cc2)[C@@H](C)CN([C@@H](C)CO)C3=O)cc1	-1.4	-0.2	-3.4	i
Cn1cc(CCOCc2ccccc2)c2ccccc21	-7.4	-10.9	1.1	i
COCC(=O)Nc1ccc2c(c1)C(=O)N(C)[C@@H]1CC[C@H](CC(=O)Nc3cn(C)nc3C)O[C@@H]1CO2	2.8	3.7	-2.2	i
Cc1noc(C)c1S(=O)(=O)N(C)C[C@@H]1OCCCC[C@H](C)Oc2ccc(NC(=O)CCC(F)(F)F)cc2C(=O)N([C@H](C)CO)C[C@H]1C	-0.4	1.3	2.1	i
C[C@@H]1CCCCO[C@H](CN(C)C(=O)Cc2ccccc2)[C@@H](C)CN([C@@H](C)CO)C(=O)c2cc(NS(=O)(=O)c3ccc(F)cc3)ccc2O1	-3.0	-10.8	2.2	i
CN1C(=O)c2cc(NC(=O)c3cccc(F)c3)ccc2OC[C@@H]2O[C@H](CC(=O)O)CC[C@@H]21	0.7	-6.8	-4.3	i
CCCN1CCCCC(NC(=O)c2ccc(C)cc2C)C1=O (stereo unspecified)	7.6	13.9	1.2	i
CCCNC(=O)N1C[C@@H](O)COC[C@H]2O[C@@H](CC(=O)N[C@H]3CCN(Cc4ccccc4)C3)CC[C@@H]21	-1.0	-5.5	-1.7	i
C[C@@H]1CN([C@H](C)CO)C(=O)c2cc(NC(=O)CCC(F)(F)F)ccc2O[C@@H](C)CCCCO[C@H]1CN(C)C(=O)Cc1ccccc1	5.9	2.4	-0.9	i
COc1ccccc1NC(=O)N1[C@@H]2CNC[C@H]1C2c1ccc(-c2ccccc2C)cc1 (stereo partly specified)	-3.7	-6.6	1.9	i
C[C@@H]1CCCCO[C@@H](CN(C)Cc2ccc3c(c2)OCO3)[C@H](C)CN([C@@H](C)CO)C(=O)c2cc(NS(=O)(=O)c3cccs3)ccc2O1	1.8	4.5	-0.1	i
Cc1ccccc1-c1ccc2c(c1)O[C@H](CN(C)C(=O)Nc1ccc(F)cc1)[C@@H](C)CN([C@H](C)CO)S2(=O)=O	-4.2	1.6	1.2	i
CCCN(C(=O)CCc1cn(CCC)c2ccccc12)c1ccc(Oc2cccnc2)cc1	-12.6	-17.4	4.7	i
CN1C(=O)c2cc(NC(=O)Cc3ccccc3)ccc2OC[C@H]2O[C@H](CC(=O)NCc3ccc(Cl)cc3)CC[C@@H]21	-5.2	-14.0	-1.7	i
O=C(Cc1cccnc1)N1CC(=O)N2[C@H](CO)[C@H](c3ccc(C#CC4CCCCC4)cc3)[C@@H]2C1	-14.8	-32.3	-0.9	i
Cc1ccccc1NC(=O)Nc1ccc2c(c1)C(=O)N(C)[C@@H]1CC[C@H](CC(=O)O)O[C@H]1CO2	1.8	5.2	-0.7	i
C[C@@H]1CCCCO[C@@H](CN(C)C(=O)NC2CCCCC2)[C@H](C)CN([C@H](C)CO)C(=O)c2cc(NC(=O)c3ccccc3)ccc2O1	-5.5	-16.9	1.1	i
Nc1ccn([C@@H]2O[C@H](C(=O)N[C@H](Cc3ccccc3)C(=O)NCC(=O)N3CCOCC3)[C@@H](O)[C@H]2O)c(=O)n1	10.8	7.0	1.7	i
O=C(Nc1ccc2c(c1)[C@H]1C[C@H](CC(=O)N3CCOCC3)O[C@@H](CO)[C@H]1O2)C1CCC1	2.9	3.7	1.2	i
O=C(C[C@@H]1CC[C@H]2[C@@H](COC[C@@H](O)CN2S(=O)(=O)c2cccc(F)c2)O1)Nc1ccccc1	-1.9	0.2	4.6	+
(listing goes on)
SMILES	rRNA inh HTS	rRNA inh HTS OD600	rRNA inh HTS RFP	FGF22 binding
CCNC(=O)C[C@H]1CC[C@H]2[C@@H](COC[C@H](O)CN2C(=O)Nc2cccc(OC)c2)O1	-1.1	7.3	-6.5	i
Cc1cc(N2CCN(C(=O)OC(C)(C)C)C[C@H]2C)ccc1N1CC[C@@H](O)C1	-5.3	-4.4	6.2	i
C[C@@H]1ON(C)[C@H]2C[C@H]3c4cc(Br)ccc4CCN3C[C@@H]12	24.6	14.5	4.8	i
C[C@H](CO)N1C[C@H](C)[C@H](CN(C)Cc2ccc(C(F)(F)F)cc2)OCCCC[C@H](C)Oc2ccc(NC(=O)Nc3ccc(C(F)(F)F)cc3)cc2C1=O	5.8	6.6	-2.3	i
C[C@@H]1CCCCO[C@H](CN(C)C(=O)c2ccncc2)[C@@H](C)CN([C@@H](C)CO)C(=O)c2cc(NC(=O)NC3CCCCC3)ccc2O1	1.1	2.9	0.8	i
CC(=O)N1[C@H](CO)[C@@H]2c3ccccc3N(S(=O)(=O)c3ccc(F)cc3)C[C@@H]21	4.2	2.3	3.1	i
CC(C)NC(=O)Nc1ccc2c(c1)C(=O)N(C)[C@H]1CC[C@@H](CC(=O)NCC(F)(F)F)O[C@H]1CO2	-1.4	2.7	-0.4	i
CCCNC(=O)C[C@H]1CC[C@H]2[C@H](COc3ccc(NC(=O)c4cc(F)cc(F)c4)cc3C(=O)N2C)O1	-2.6	-3.7	-0.5	i
N#Cc1cccc(-c2ccc([C@@H]3[C@@H](CO)N4CCCCN(Cc5ccccc5F)C[C@H]34)cc2)c1	-56.4	-77.7	-8.6	i
CC(C)NC(=O)Nc1ccc2c(c1)C(=O)N([C@@H](C)CO)C[C@H](C)[C@H](CN(C)Cc1ccc3c(c1)OCO3)OCCCC[C@H](C)O2	3.3	4.9	-1.1	i
O=C(O)C[C@H]1C[C@H]2c3cc(NC(=O)Nc4ccc(C(F)(F)F)cc4)ccc3O[C@H]2[C@H](CO)O1	0.8	3.9	-1.5	i
C[C@@H]1CCCCO[C@@H](CN(C)C(=O)c2ccncc2)[C@H](C)CN([C@H](C)CO)C(=O)c2cc(NC(=O)CCC(F)(F)F)ccc2O1	-0.1	3.2	1.7	i
COc1ccc(NC(=O)N(C)C[C@H]2Oc3ccc(NC(=O)Nc4ccc(C(F)(F)F)cc4)cc3C(=O)N([C@H](C)CO)C[C@H]2C)cc1	5.7	-4.0	-0.2	i
O=C(Nc1ccccc1)Nc1ccc2c(c1)[C@@H]1C[C@H](CC(=O)N3CCOCC3)O[C@H](CO)[C@@H]1O2	1.6	1.0	-2.8	i
C[C@@H]1CCCCO[C@@H](CN(C)CC2CCCCC2)[C@H](C)CN([C@@H](C)CO)C(=O)c2cc(NS(=O)(=O)c3ccc(Cl)cc3)ccc2O1	-16.7	-45.0	8.9	i
CCCNC(=O)C[C@@H]1CC[C@@H]2[C@H](COc3ccc(NC(=O)Nc4ccccc4)cc3C(=O)N2C)O1	0.3	-0.6	-1.4	i
O=C(NS(=O)(=O)c1cccc(F)c1)[C@H]1O[C@@H](n2ccc(=O)[nH]c2=O)[C@H](O)[C@@H]1O	20.4	27.2	1.5	i
CNC(=O)C[C@@H]1CC[C@H]2[C@@H](COc3ccc(NS(=O)(=O)c4ccc(F)cc4)cc3C(=O)N2C)O1	3.7	5.7	-1.7	i

Five entries picked at random from the list so far:
SMILES	rRNA inh HTS	rRNA inh HTS OD600	rRNA inh HTS RFP	FGF22 binding
CCCN1CCCCC(NC(=O)c2ccc(C)cc2C)C1=O (stereo unspecified)	7.6	13.9	1.2	i
COCC(=O)Nc1ccc2c(c1)C(=O)N(C)[C@@H]1CC[C@H](CC(=O)Nc3cn(C)nc3C)O[C@@H]1CO2	2.8	3.7	-2.2	i
C[C@@H]1CCCCO[C@@H](CN(C)Cc2ccc3c(c2)OCO3)[C@H](C)CN([C@@H](C)CO)C(=O)c2cc(NS(=O)(=O)c3cccs3)ccc2O1	1.8	4.5	-0.1	i
C[C@@H]1CCCCO[C@@H](CN(C)C(=O)NC2CCCCC2)[C@H](C)CN([C@H](C)CO)C(=O)c2cc(NC(=O)c3ccccc3)ccc2O1	-5.5	-16.9	1.1	i
C[C@H](CO)N1C[C@H](C)[C@@H](CN(C)S(=O)(=O)c2cn(C)cn2)Oc2ccc(NC(=O)CCC(F)(F)F)cc2CC1=O	3.8	10.4	-2.1	i

Not all compounds are listed, so the mix of outcomes need not match the whole.
